Screening results (PubChem BioAssay)
DUX4 inh: blocks DUX4-driven transcriptional activation; 293T-iDUX4 ZSCAN4-Gaussia luciferase reporter, 24 h; hits give low values; activity change, negative = inhibition, % (test concentration not listed); 37,000 compounds, 0.8% hits;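 active = -10% or lower and over 25 points stronger than a control reporter; inconclusive = -10% or lower with a smaller gap; inactive = above -10%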;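 also: 0% = median of neutral control wells and -100% = median of positive control wells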
DUX4 inh difference: recorded beside DUX4 inh, whose call it bears; Gaussia minus Italica difference, %; measured here: selective DUX4 reporter inhibition;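 worked out from the two reporters; negative = selective loss of the DUX4 reporter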
DUX4 inh control: second read-out of DUX4 inh, no call of its own (marks repeat the call); activity change, negative = inhibition, %; measured here: Italica tet-on control reporter;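 0 = neutral control and -100 = positive control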
Numbers without * were called inactive; u = inconclusive; x = no result given; & = joins results of further samples.

SMILES	DUX4 inh	DUX4 inh difference	DUX4 inh control
O=C([C@@H]1[C@@H](CO)[C@@H]2Cn3c(cccc3=O)[C@H]1N2)N1CCc2ccccc2C1	2	0	1.9
CN(C)C(=O)c1cccc(-c2ccc([C@H]3[C@H]4CN(Cc5cccnc5)CCCCN4[C@H]3CO)cc2)c1	11	24	-13
COC(=O)C[C@@H]1C[C@H]2c3cc(NS(=O)(=O)c4ccc(F)cc4)ccc3O[C@H]2[C@H](CO)O1	2	2	0.3
C[C@@H]1CN([C@H](C)CO)C(=O)c2ccccc2-c2ccccc2CO[C@@H]1CN(C)Cc1cccc(C(=O)O)c1	3	-2	5.0
CCCN1[C@@H]2Cn3c(ccc(-c4ccccc4F)c3=O)[C@H]1[C@@H](C(=O)NCCOC)[C@@H]2CO	-4	-18	14
CN(C)C(=O)C[C@H]1C[C@@H]2c3cc(NC(=O)C4CCOCC4)ccc3O[C@@H]2[C@H](CO)O1	8	0	8.3
COc1ccc2c3c(n(C)c2c1)[C@@H](CO)N(C(=O)Cc1ccccn1)CC31CCN(Cc2ccccn2)CC1	4	-4	7.6
CCNC(=O)[C@@H]1[C@@H](CO)[C@@H]2Cn3c(ccc(-c4cccnc4)c3=O)[C@@H]2N1Cc1ccccc1	1	-8	8.2
CS(=O)(=O)N1[C@H](C#N)[C@H](c2ccccc2)[C@@H]1CO	8	5	2.7
O=C(C1CCOCC1)N1C[C@@H]2N[C@H](C1)C2c1ccc(/C=C/c2ccccc2)cc1 (stereo partly specified)	u	4	-6.5
COCC(=O)N1[C@H](CO)[C@H]2c3ccccc3N(C(=O)Nc3ccccc3F)C[C@H]21	2	6	-4.0
O=C(N[C@@H]1C=C[C@@H](CC(=O)N2CCc3ccccc3C2)O[C@H]1CO)C1CCC1	9	3	5.4
COCC#Cc1ccc([C@@H]2[C@H](CO)N3CCCCN(C(=O)Nc4cc(F)ccc4F)C[C@@H]23)cc1	0	-3	2.9
N#C[C@H]1[C@@H](c2ccc(-c3cccnc3)cc2)[C@@H](CO)N1C(=O)Nc1ccc(F)cc1	2	-2	4.1
COCC(=O)Nc1ccc2c(c1)C(=O)N(C)[C@H]1CC[C@@H](CC(=O)Nc3cn(C)nc3C)O[C@@H]1CO2	-2	-3	1.6
COCC(=O)NC[C@@H]1[C@@H](c2ccccc2)[C@H](CO)N1C(C)=O	0	2	-1.9
CN(C)CC(=O)N[C@@H]1CC[C@H](CCNC(=O)C2CCC2)O[C@H]1CO	1	-1	2.7
COc1ccc(-c2ccc(C3[C@H]4CNC[C@@H]3N4C(=O)Nc3ccc(C(F)(F)F)cc3)cc2)cc1 (stereo partly specified)	16&-4	11&6	5.4&-11
Cc1noc(C)c1NC(=O)N(C)C[C@@H]1Oc2c(NC(=O)C3CCOCC3)cccc2C(=O)N([C@@H](C)CO)C[C@H]1C	2	2	-0.1
CCCNC(=O)N1C[C@H](C)[C@@H](OC)CN(C)C(=O)c2ccc(NC(=O)CC)cc2OC[C@H]1C	3	-10	13
COc1cc(CN2C[C@@H]3N[C@H](C2)C3c2ccc(-c3ccc(C#N)cc3)cc2)cc(OC)c1 (stereo partly specified)	u	x	x
O=C(CN1CCOCC1)NCC[C@@H]1CC[C@H](NS(=O)(=O)c2ccc(Cl)cc2)[C@H](CO)O1	-2	-1	-1.0
COc1ccccc1S(=O)(=O)N1CC[C@@H]2[C@@H](CO)Nc3ccc(-c4cccc(C#N)c4)cc3[C@@H]21	-1	8	-9.1
C[C@H]1CN([C@@H](C)CO)C(=O)c2cc(-c3cccc(C(=O)N(C)C)c3)cnc2O[C@H]1CN(C)S(=O)(=O)c1cccc(F)c1	-2	-4	1.9
O=C(C1CCCCC1)N1CC2(C1)[C@@H](c1ccccc1)[C@@H](CO)N2Cc1ccc(Cl)cc1	-8	0	-7.9

(further entries)
SMILES	DUX4 inh	DUX4 inh difference	DUX4 inh control
CO[C@H]1CC[C@H]2CCOc3c(C#N)cccc3C(=O)N(C)C[C@H](c3ccccc3)CC(=O)N(C)C[C@@H]1O2	-4	-6	2.2
N#Cc1ccc(-c2ccc([C@@H]3[C@H](CO)N4C(=O)CN(C(=O)Cc5ccccc5)C[C@@H]34)cc2)cc1	-2	3	-4.8
C[C@H]1CN([C@@H](C)CO)C(=O)c2ccccc2-c2ccccc2CO[C@@H]1CN(C)C(=O)Nc1ccc(-c2ccccc2)cc1	2	-2	3.6
CCCNC(=O)C[C@@H]1CC[C@@H]2[C@H](COC[C@@H](O)CN2C(=O)c2cc(Cl)cc(Cl)c2)O1	11	7	4.2
CCCNC(=O)N1[C@@H](C#N)[C@H](c2ccc(-c3ccc(C(=O)N(C)C)cc3)cc2)[C@@H]1CO	4	4	-0.4
CO[C@@H]1CN(C)C(=O)c2cc(NS(C)(=O)=O)ccc2OC[C@@H](C)N(CC2CCOCC2)C[C@@H]1C	-10	-7	-3.4
C[C@@H]1CN([C@@H](C)CO)C(=O)c2cc(NC(=O)c3ccncc3)ccc2O[C@@H](C)CCCCO[C@H]1CN(C)C(=O)Nc1cccc2ccccc12	0	1	-0.9
O=C(c1cnccn1)N1CC[C@@H]2[C@@H](CO)Nc3ccc(-c4ccccc4)cc3[C@@H]21	16	16	-0.3
CCC(=O)N(C)C[C@@H]1Oc2cc(C#Cc3ccncc3)ccc2S(=O)(=O)N([C@H](C)CO)C[C@H]1C	u	x	x
C/C=C/c1ccc([C@H]2[C@@H](CO)N(C(=O)C3CCC3)[C@H]2CNC(=O)CN(C)C)cc1	1	3	-1.3
CC(C)(O)C#Cc1ccc([C@@H]2[C@@H](CO)N3CCCCN(C(=O)c4ccncc4)C[C@@H]23)cc1	7	6	1.4
CC=Cc1ccc2n(c1=O)C[C@H]1[C@H](CO)[C@@H](C(=O)N(C)C)N(C(=O)CC)[C@@H]21 (mixture of isomers)	-1	-7	6.1
CN(C)c1ccc2c(c1)[C@@H]1C[C@@H](CC(=O)NCC3CC3)O[C@@H](CO)[C@@H]1O2	3	2	1.7
CCC(=O)N1CC2(CN(Cc3ccccc3Cl)C2)c2c([nH]c3cc(OC)ccc23)[C@H]1CO	u	x	x
CN(C)C(=O)C[C@H]1CC[C@@H]2[C@H](COC[C@H](O)CN2C(=O)C2CCOCC2)O1	-5	-7	2.5
Cc1ccc(S(=O)(=O)N[C@H]2CC[C@H](CC(=O)N3CCc4ccccc4C3)O[C@@H]2CO)cc1	0	4	-4.3
N#C[C@@H]1[C@H](c2ccccc2C2=CCCCC2)[C@@H](CO)N1S(=O)(=O)c1ccccc1	u	x	x
COc1ccc(C#Cc2ccc([C@@H]3[C@H]4CN(C(=O)C5CCOCC5)CC(=O)N4[C@H]3CO)cc2)cc1	u	x	x
O=C(C1CCC1)N1CC2(C1)[C@H](c1ccccc1)[C@H](CO)N2CC1CCCC1	u	x	x
O=C(C[C@@H]1CC[C@@H]2[C@H](COC[C@H](O)CN2C(=O)c2ccc(F)cc2)O1)NC1Cc2ccccc2C1	7	6	1.1
CNC[C@H]1OCCCC[C@H](C)Oc2ccc(NC(=O)Cc3ccccc3)cc2C(=O)N([C@H](C)CO)C[C@@H]1C	-7	-11	4.4
C[C@H]1CN([C@@H](C)CO)C(=O)c2cc(C#CC3CC3)cnc2O[C@H]1CN(C)C(=O)c1ccc(F)cc1	-1	-1	0.0
CC(=O)N1CCCCN2[C@H](CO)[C@@H](c3ccc(-c4cccc(C)c4)cc3)[C@H]2C1	31	29	2.5
Cc1ccccc1S(=O)(=O)N1C[C@H](O)COC[C@H]2O[C@H](CC(=O)O)CC[C@@H]21	4	8	-3.3
COc1ccc(S(=O)(=O)Nc2ccc3c(c2)OC[C@@H](C)NC[C@H](C)[C@@H](OC)CN(C)C3=O)cc1	10	5	5.4

Twelve entries from above in a different format.
Values run as follows: DUX4 inh, DUX4 inh difference, DUX4 inh control
> CO[C@H]1CC[C@H]2CCOc3c(C#N)cccc3C(=O)N(C)C[C@H](c3ccccc3)CC(=O)N(C)C[C@@H]1O2
 : -4, -6, 2.2
> N#Cc1ccc(-c2ccc([C@@H]3[C@H](CO)N4C(=O)CN(C(=O)Cc5ccccc5)C[C@@H]34)cc2)cc1
 : -2, 3, -4.8
> C[C@H]1CN([C@@H](C)CO)C(=O)c2ccccc2-c2ccccc2CO[C@@H]1CN(C)C(=O)Nc1ccc(-c2ccccc2)cc1
 : 2, -2, 3.6
> CCCNC(=O)C[C@@H]1CC[C@@H]2[C@H](COC[C@@H](O)CN2C(=O)c2cc(Cl)cc(Cl)c2)O1
 : 11, 7, 4.2
> CCCNC(=O)N1[C@@H](C#N)[C@H](c2ccc(-c3ccc(C(=O)N(C)C)cc3)cc2)[C@@H]1CO
 : 4, 4, -0.4
> CO[C@@H]1CN(C)C(=O)c2cc(NS(C)(=O)=O)ccc2OC[C@@H](C)N(CC2CCOCC2)C[C@@H]1C
 : -10, -7, -3.4
> C[C@@H]1CN([C@@H](C)CO)C(=O)c2cc(NC(=O)c3ccncc3)ccc2O[C@@H](C)CCCCO[C@H]1CN(C)C(=O)Nc1cccc2ccccc12
 : 0, 1, -0.9
> O=C(c1cnccn1)N1CC[C@@H]2[C@@H](CO)Nc3ccc(-c4ccccc4)cc3[C@@H]21
 : 16, 16, -0.3
> CCC(=O)N(C)C[C@@H]1Oc2cc(C#Cc3ccncc3)ccc2S(=O)(=O)N([C@H](C)CO)C[C@H]1C
 : u, x, x
> C/C=C/c1ccc([C@H]2[C@@H](CO)N(C(=O)C3CCC3)[C@H]2CNC(=O)CN(C)C)cc1
 : 1, 3, -1.3
> CC(C)(O)C#Cc1ccc([C@@H]2[C@@H](CO)N3CCCCN(C(=O)c4ccncc4)C[C@@H]23)cc1
 : 7, 6, 1.4
> CC=Cc1ccc2n(c1=O)C[C@H]1[C@H](CO)[C@@H](C(=O)N(C)C)N(C(=O)CC)[C@@H]21 (mixture of isomers)
 : -1, -7, 6.1

Following part.
SMILES	DUX4 inh	DUX4 inh difference	DUX4 inh control
Cc1cccc(S(=O)(=O)N2C[C@@H]3N[C@H](C2)C3c2ccc(-c3ccncc3)cc2)c1 (stereo partly specified)	u	4	-10
N#C[C@@H]1[C@@H](c2ccccc2-c2ccccc2)[C@H](CO)N1C(=O)Cc1ccncc1	19	18	1.2
C[C@H]1CN([C@@H](C)CO)C(=O)CCCn2nncc2CO[C@H]1CN(C)C(=O)Nc1cccc2ccccc12	-4	-3	-0.9
O=C(Cc1ccncc1)N1CC(=O)N2[C@@H](CO)[C@H](c3ccc(Br)cc3)[C@@H]2C1	20	17	3.9
COC(=O)[C@H]1[C@H](CO)[C@H]2Cn3c(ccc(-c4ccncc4)c3=O)[C@H]2N1CC1CCCC1	13	12	1.2
COc1ccc(-c2ccc([C@@H]3[C@H]4CN(Cc5ccccc5)CC(=O)N4[C@H]3CO)cc2)cc1	3	5	-2.5
OC[C@@H]1[C@H](c2ccc(C#Cc3ccccc3)cc2)[C@@H]2CN(Cc3cncnc3)CCCCN12	u	x	x
COc1ccccc1C#Cc1ccc2c(c1)[C@H]1[C@H](CCN1S(=O)(=O)c1ccc(C)cc1)[C@H](CO)N2	u	x	x
O=C(C[C@H]1C[C@@H]2c3cc(NC(=O)c4ccc5c(c4)OCO5)ccc3O[C@@H]2[C@@H](CO)O1)NC1CCCCC1	u	x	x
CN1c2ccc(-c3ccc(F)cc3)cc2[C@H]2[C@H](CCN2C(=O)Cc2cccnc2)[C@@H]1CO	-1	12	-13
COc1ccccc1CNC(=O)C[C@@H]1CC[C@@H]2[C@H](COC[C@H](O)CN2C(=O)Nc2ccc(C(F)(F)F)cc2)O1	2	-1	3.5
CN(C)CC#Cc1ccc([C@H]2[C@H](CO)N3CCCCN(C(=O)NC4CCCC4)C[C@@H]23)cc1	9	-4	13
CC=Cc1ccc2n(c1=O)C[C@@H]1[C@@H](CO)[C@H](C(=O)NC3Cc4ccccc4C3)N(CC3CC3)[C@H]21 (mixture of isomers)	-4	-1	-2.6
COc1ccccc1C(=O)Nc1ccc2c(c1)C(=O)N(C)[C@@H]1CC[C@@H](CC(=O)NCCc3ccncc3)O[C@@H]1CO2	0	-2	1.7
C[C@H](CO)N1C[C@H](C)[C@@H](CN(C)S(=O)(=O)c2ccccc2)OCCCC[C@H](C)Oc2ccc(NC(=O)CCC(F)(F)F)cc2C1=O	-1	-6	4.9
C[C@H](CO)N1C[C@H](C)[C@H](CN(C)Cc2ccccn2)Oc2ncc(-c3cccc(F)c3)cc2C1=O	2	1	1.7
COc1ccc2c3c(n(C)c2c1)[C@@H](CO)N(Cc1ccc(Cl)cc1)CC31CCN(C(=O)NC(C)C)CC1	u	x	x
C[C@@H]1CN([C@@H](C)CO)C(=O)CCCn2nncc2CO[C@@H]1CN(C)S(=O)(=O)c1ccc(-n2cccn2)cc1	7	8	-1.1
COCCN(C[C@@H]1N[C@@H](CO)[C@H]1c1ccc(-c2cccnc2)cc1)C(C)=O	-1	-3	1.8
CO[C@@H]1CN(C)C(=O)c2ccc(NS(=O)(=O)CC(F)(F)F)cc2OC[C@H](C)N(Cc2nccs2)C[C@@H]1C	7	0	6.6
C[C@H](CO)N1C[C@H](C)[C@@H](CN(C)C(=O)c2cc(-c3ccccc3)on2)OCc2cn(nn2)CCCC1=O	u	x	x
COc1ccc(S(=O)(=O)N2[C@@H]3CNC[C@H]2C3c2ccc(-c3ccncc3)cc2)cc1 (stereo partly specified)	13&22	-4&-4	17&26
O=C(c1cnccn1)N1CC(=O)N2[C@H](C1)[C@@H](c1ccc(C#CCC3CCCC3)cc1)[C@@H]2CO	1	-8	8.7
COc1ccc(NC(=O)Nc2cccc3c2O[C@H](CN(C)S(=O)(=O)c2cccs2)[C@@H](C)CN([C@H](C)CO)C3=O)cc1	-2	1	-2.3
COC(=O)C[C@H]1CC[C@H]2[C@@H](COC[C@H](O)CN2CCC(F)(F)F)O1	5	7	-1.6

A portion of the library; count on the stated rates, not on these rows.
